High-throughput results: PubChem, Broad Institute
Myc binder: binds human c-Myc on microarray | calls only | small molecule microarray, His-c-Myc binding, anti-His fluorescence | P01106 | 1.5% of 17,000 active | AID 624141;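 active = spot fluorescence over background with P-value below 7% in all four replicate spots, showing protein binding; compounds were printed on slides so no solution concentration is given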;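 note: score is binary with 100 for all four spots passing and 0 otherwise; about 2 pmol printed per array spot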
STAT3 binder: binds human STAT3 on microarray; 0.2% of 17,000 active; AID 624138; P40763; calls only; Small molecule microarray, His-STAT3 binding, anti-His fluorescence;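 active = compounds whose four printed spots each show fluorescence over background unusually high for their array block, chance value under 7%; compounds were printed on slides so no solution concentration is given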;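 note: about 2 pmol printed per array spot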
Target sequence (P40763 whole entry, looked up): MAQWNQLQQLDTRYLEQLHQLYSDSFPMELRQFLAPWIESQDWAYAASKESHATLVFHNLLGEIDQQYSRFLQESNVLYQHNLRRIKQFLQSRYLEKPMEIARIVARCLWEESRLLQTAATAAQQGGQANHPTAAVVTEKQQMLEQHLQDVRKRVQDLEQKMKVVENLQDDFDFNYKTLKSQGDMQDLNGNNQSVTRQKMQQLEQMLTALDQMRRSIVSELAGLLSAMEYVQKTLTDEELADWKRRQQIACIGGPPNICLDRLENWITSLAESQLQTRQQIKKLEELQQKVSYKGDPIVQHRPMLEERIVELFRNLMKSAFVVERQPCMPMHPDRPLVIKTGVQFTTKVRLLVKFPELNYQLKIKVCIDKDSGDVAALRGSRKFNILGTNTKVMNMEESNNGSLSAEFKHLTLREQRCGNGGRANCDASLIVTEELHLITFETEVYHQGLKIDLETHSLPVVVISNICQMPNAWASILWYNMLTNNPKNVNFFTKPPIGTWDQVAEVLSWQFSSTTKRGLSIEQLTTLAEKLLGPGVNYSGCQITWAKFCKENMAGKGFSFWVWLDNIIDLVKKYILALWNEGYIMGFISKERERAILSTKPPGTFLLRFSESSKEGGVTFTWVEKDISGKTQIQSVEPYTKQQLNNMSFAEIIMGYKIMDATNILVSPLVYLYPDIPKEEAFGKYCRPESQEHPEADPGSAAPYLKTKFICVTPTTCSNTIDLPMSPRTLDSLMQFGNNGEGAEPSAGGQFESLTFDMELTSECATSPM
p53 mut binder: binds human mutant p53 on microarray; small molecule microarray binding, anti-GST fluorescence; calls only; 0.4% of 17,000 active; AID 624136;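 active = compounds whose four printed spots each glow above background more than chance allows, each with a p-value under 7%; compounds were printed on slides so no solution concentration is given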;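 note: about 2 pmol printed per array spot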
ID4 SMM: ID4 (human) binding; P47928; small molecule microarray, Flag-ID4 binding, fluorescence F/B; calls only; 1.2% of 31,000 active;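 active = spot signal over background at p below 0.07 in all four prints; compounds were printed on slides so no solution concentration is given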;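 note: a binder raises fluorescence above local background on the spot; about 2 pmol printed per array spot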
Target sequence (P47928 whole entry, looked up): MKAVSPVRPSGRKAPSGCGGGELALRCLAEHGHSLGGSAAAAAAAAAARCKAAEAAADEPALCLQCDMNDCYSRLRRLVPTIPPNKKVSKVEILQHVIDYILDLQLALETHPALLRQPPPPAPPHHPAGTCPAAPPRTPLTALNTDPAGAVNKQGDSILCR
Calls only; i = inactive; . = not tested or not shown; + = active, no number. The list is partial; rates above refer to the full screens.

SMILES,Myc binder,STAT3 binder,p53 mut binder,ID4 SMM
C[C@@H]1CN([C@@H](C)CO)C(=O)c2cccc(NC(=O)c3ccncc3)c2O[C@H]1CN(C)C(=O)Nc1cccc2ccccc12,i,i,i,i
COc1ccc(/C=C/c2cc(OC)cc3c2CCC(C)(C)O3)cc1,i,i,i,.
C[C@H](CO)N1C[C@H](C)[C@H](CN(C)S(=O)(=O)c2cn(C)cn2)Oc2ccc(NS(=O)(=O)c3cn(C)cn3)cc2C1=O,i,i,i,i
CC(C)(C)NS(=O)(=O)c1ccc(NC(=O)COc2ccc3ccccc3c2Br)cc1,i,i,i,i
CC(C)NC(=O)N(C)C[C@@H]1OCCCC[C@@H](C)Oc2ccc(NC(=O)c3ccncc3)cc2C(=O)N([C@H](C)CO)C[C@@H]1C,i,i,i,i
Cc1ccc([N+](=O)[O-])cc1N(CC(=O)Nc1ccccc1Cl)S(C)(=O)=O,i,i,i,i
C[C@@H]1CN([C@H](C)CO)C(=O)c2cc(NC(=O)Cn3cnnn3)ccc2O[C@H]1CN(C)S(=O)(=O)c1cccs1,i,i,i,i
Cc1ccc(S(=O)(=O)N[C@H](C(=O)NCCn2cc(CN3C(=O)COC[C@H]3c3ccccc3)nn2)C(C)C)cc1,i,i,+,.

Next section:
SMILES,Myc binder,STAT3 binder,p53 mut binder,ID4 SMM
CC(C)(O)CCc1cc2c(cc1O)O[C@H]1c3ccc(O)cc3OC[C@@H]21,i,i,i,.
CN(C)CCOC(=O)COc1ccc(Cl)cc1,i,i,i,i
C[C@H]1CN([C@@H](C)CO)C(=O)Cc2cc(NC(=O)Nc3ccc(F)cc3)ccc2O[C@H]1CN(C)C(=O)Nc1ccccc1,i,i,i,.
CNC[C@@H]1Oc2ccc(NC(=O)NC(C)C)cc2CC(=O)N([C@@H](C)CO)C[C@H]1C,i,i,i,i
C=CC1CN(S(=O)(=O)c2ccc(Br)cc2)C(=O)N1c1ccc(Br)cc1 (stereo unspecified),i,i,i,i
Cc1c(Cl)c(C(F)(F)F)nn1CC(=O)Nc1ccc(C#N)cc1,i,i,i,i
CC(=O)OCCNC(=O)c1cccnc1,i,i,i,i
COc1cc2c3cc1Oc1c(OC)c(OC)cc4c1[C@@H](Cc1ccc(OC(=O)c5ccc([N+](=O)[O-])cc5)c(c1)Oc1ccc(cc1)C[C@@H]3N(C)CC2)N(C)CC4,i,i,i,+

Next section.
SMILES,Myc binder,STAT3 binder,p53 mut binder,ID4 SMM
C[C@H](CO)N1C[C@H](C)[C@H](CN(C)C)OCCCC[C@H](C)Oc2ccc(NC(=O)C3CCCCC3)cc2C1=O,i,i,i,i
C[C@@H]1CN([C@H](C)CO)C(=O)CCCn2cc(nn2)CO[C@@H]1CN(C)S(=O)(=O)c1cn(C)cn1,i,i,i,i
COc1ccc(S(=O)(=O)Nc2cccc3c2O[C@@H](CN(C)Cc2ccncc2)[C@@H](C)CN([C@H](C)CO)C3=O)cc1,i,i,i,i
Cc1noc(C)c1NC(=O)N(C)C[C@H]1OCCCC[C@@H](C)Oc2ccc(NC(=O)Cc3ccccc3)cc2C(=O)N([C@H](C)CO)C[C@H]1C,i,i,i,.
COc1ccc(NC(=O)Nc2cccc3c2O[C@H](CN(C)CC2CC2)[C@@H](C)CN([C@H](C)CO)C3=O)cc1,i,i,i,i
C[C@@H]1CN([C@@H](C)CO)C(=O)c2cccc(N(C)C)c2O[C@@H]1CN(C)Cc1ccc(C(F)(F)F)cc1,i,i,i,i
COc1cc(=O)oc(C(C)C(C)O)c1CO (stereo unspecified),i,i,i,i
Fc1cccc(/C=N/N=C/c2cccc(F)c2)c1,i,i,i,i

Ordered by heavy-atom count (ascending): some entries from above
SMILES,Myc binder,STAT3 binder,p53 mut binder,ID4 SMM
COc1cc(=O)oc(C(C)C(C)O)c1CO (stereo unspecified),i,i,i,i
Fc1cccc(/C=N/N=C/c2cccc(F)c2)c1,i,i,i,i
C[C@H](CO)N1C[C@H](C)[C@H](CN(C)C)OCCCC[C@H](C)Oc2ccc(NC(=O)C3CCCCC3)cc2C1=O,i,i,i,i

Next section:
SMILES,Myc binder,STAT3 binder,p53 mut binder,ID4 SMM
COc1ccc(C#Cc2ccc3c(c2)[C@]2(C(=O)N3)[C@H](C(=O)NC[C@H](O)c3ccccc3)[C@H]3C(=O)O[C@H](c4ccccc4)[C@H](c4ccccc4)N3[C@@H]2c2ccccc2OCCO)cc1,i,i,i,.
Cc1noc(C)c1NC(=O)N(C)C[C@H]1Oc2c(NC(=O)C3CC3)cccc2C(=O)N([C@@H](C)CO)C[C@H]1C,i,i,i,.
O=C(Nc1ccc(S(=O)(=O)Nc2nccs2)cc1)C1CC(=O)N(c2ccccc2)C1 (stereo unspecified),i,i,i,i
Cc1noc(C)c1NC(=O)N(C)C[C@@H]1Oc2ccc(NS(=O)(=O)c3cccs3)cc2C(=O)N([C@@H](C)CO)C[C@H]1C,i,i,i,i
C[C@H]1CN([C@@H](C)CO)C(=O)c2cccc(NC(=O)Nc3ccc(C(F)(F)F)cc3)c2O[C@H]1CN(C)CC1CC1,i,i,i,i
CC(C)NC(=O)Nc1ccc2c(c1)C(=O)N([C@@H](C)CO)C[C@H](C)[C@H](CN(C)S(=O)(=O)c1ccc(F)cc1)OCCCC[C@H](C)O2,i,i,i,i
O=C(O)c1ccc(CSc2n[nH]c(-c3ccco3)n2)cc1,i,i,i,+
C[C@H](CO)N1C[C@H](C)[C@H](CN(C)S(=O)(=O)c2cccs2)Oc2ccc(NS(=O)(=O)c3ccccc3)cc2CC1=O,i,i,i,i

Next section:
SMILES,Myc binder,STAT3 binder,p53 mut binder,ID4 SMM
O=C(CCN1CCN(CCO)CC1)Nc1ccc(F)c(F)c1,i,i,i,i
CC(C)NC(=O)N(C)C[C@H]1OCCCC[C@@H](C)Oc2ccc(NC(=O)Cc3ccccc3)cc2C(=O)N([C@@H](C)CO)C[C@H]1C,i,i,i,i
C[C@@H]1CCCCO[C@@H](CN(C)S(=O)(=O)c2cccs2)[C@@H](C)CN([C@H](C)CO)C(=O)c2cc(NS(C)(=O)=O)ccc2O1,i,i,i,i
Cc1noc(C)c1NC(=O)N(C)C[C@@H]1Oc2ccc(NC(=O)CCN3CCOCC3)cc2CC(=O)N([C@@H](C)CO)C[C@H]1C,i,i,i,i
C[C@H](CO)N1C[C@H](C)[C@@H](CN(C)Cc2ccc(-c3ccccc3)cc2)Oc2ccc(NS(=O)(=O)c3cccs3)cc2C1=O,i,i,i,i
Cc1noc(C)c1S(=O)(=O)Nc1cccc2c1O[C@H](CN(C)Cc1ccc(C(=O)O)cc1)[C@H](C)CN([C@@H](C)CO)C2=O,i,i,i,i
COc1cccc(OCCNS(=O)(=O)c2cccc([N+](=O)[O-])c2)c1,i,i,i,i
C[C@@H]1CN([C@H](C)CO)C(=O)c2cc(NC(=O)CCCN(C)C)ccc2O[C@@H](C)CCCCO[C@H]1CN(C)C(=O)CCCN(C)C,i,i,i,i

Other records follow.
SMILES,Myc binder,STAT3 binder,p53 mut binder,ID4 SMM
OCc1ccccc1O[C@@H]1O[C@H](CO)[C@@H](O)[C@H](O)[C@H]1O,i,i,i,.
CC(C)NC(=O)N(C)C[C@@H]1Oc2ccc(NC(=O)CCN3CCOCC3)cc2CC(=O)N([C@H](C)CO)C[C@H]1C,i,i,i,i
COc1ccc(S(=O)(=O)Nc2ccc3c(c2)C(=O)N([C@H](C)CO)C[C@H](C)[C@@H](CN(C)Cc2ccncc2)O3)cc1,i,i,i,i
COc1ccc(S(=O)(=O)N(C)C[C@H]2Oc3ccc(NC(=O)Nc4cccc5ccccc45)cc3CC(=O)N([C@H](C)CO)C[C@@H]2C)cc1,i,i,i,i
CC(C)NC(=O)N(C)C[C@@H]1OCCCC[C@@H](C)Oc2ccc(NC(=O)Nc3ccc(C(F)(F)F)cc3)cc2C(=O)N([C@@H](C)CO)C[C@@H]1C,i,i,i,+
COC(=O)c1c(NC(=O)CSc2ncnc3sc(C)c(C)c23)sc(C)c1C,i,i,i,i
C[C@@H]1CN([C@H](C)CO)C(=O)Cc2cc(NC(=O)CCC(F)(F)F)ccc2O[C@@H]1CN(C)Cc1ccc(C(F)(F)F)cc1,i,i,i,.
C[C@H](CO)N1C[C@H](C)[C@H](CN(C)C(=O)Nc2ccccc2)OCCCC[C@H](C)Oc2ccc(NS(C)(=O)=O)cc2C1=O,i,i,i,i

More structures
SMILES,Myc binder,STAT3 binder,p53 mut binder,ID4 SMM
COc1cc(C2c3cc(O[C@@H]4O[C@H](CO)[C@@H](O)[C@H](O)[C@H]4O)c(OC)cc3CC(CO)C2CO)ccc1O (stereo partly specified),i,i,i,.
C[C@@H]1CN([C@@H](C)CO)C(=O)c2cc(NC(=O)C3CCCCC3)ccc2O[C@@H](C)CCCCO[C@@H]1CN(C)C,i,i,i,i
CC(C)NC(=O)N(C)C[C@@H]1OCCCC[C@@H](C)Oc2ccc(NC(=O)CCC(F)(F)F)cc2C(=O)N([C@H](C)CO)C[C@H]1C,i,i,i,i
CC(C)=CCC/C(C)=C/CC/C(C)=C/CSc1ncn[nH]1,i,i,i,i
C[C@@H]1CN([C@@H](C)CO)C(=O)c2cc(N(C)C)ccc2O[C@H]1CN(C)C(=O)Nc1ccc2c(c1)OCO2,i,i,i,i
C[C@H](CO)N1C[C@H](C)[C@H](CN(C)C)OCCCC[C@H](C)Oc2ccc(NC(=O)Cc3ccccc3)cc2C1=O,i,i,i,i
CNC[C@@H]1OCCCC[C@@H](C)Oc2ccc(NS(=O)(=O)c3ccccc3)cc2C(=O)N([C@@H](C)CO)C[C@H]1C,i,i,i,i
COC(=O)C(Cc1ccccc1)NC(=O)c1ccccc1 (stereo unspecified),i,i,i,i

Structures shown so far that contain an aryl thioether with sulfur outside any ring:
SMILES,Myc binder,STAT3 binder,p53 mut binder,ID4 SMM
O=C(O)c1ccc(CSc2n[nH]c(-c3ccco3)n2)cc1,i,i,i,+
COC(=O)c1c(NC(=O)CSc2ncnc3sc(C)c(C)c23)sc(C)c1C,i,i,i,i
CC(C)=CCC/C(C)=C/CC/C(C)=C/CSc1ncn[nH]1,i,i,i,i

Other structures follow.
SMILES,Myc binder,STAT3 binder,p53 mut binder,ID4 SMM
Cc1ccc(S(=O)(=O)NC2(C(=O)O)CCCCC2)cc1,i,i,i,i
C[C@H](CO)N1C[C@H](C)[C@@H](CN(C)C)OCCCC[C@H](C)Oc2ccc(NC(=O)c3ccccc3)cc2C1=O,i,i,i,i
COc1ccccc1-c1nnc(SCC(=O)c2ccc(Cl)cc2)n1-c1ccccc1,i,i,i,i
CCO[C@@H]1OC(C(=O)N2CCN(Cc3ccccc3)CC2)=C[C@H](C2CCCCC2)[C@H]1CCCO,i,i,i,i
C[C@@H]1CCCCO[C@H](CN(C)S(=O)(=O)c2cccs2)[C@H](C)CN([C@H](C)CO)C(=O)c2cc(N(C)C)ccc2O1,i,i,i,i
COc1ccc(S(=O)(=O)N(C)C[C@@H]2Oc3ccc(NC(=O)CCCN(C)C)cc3CC(=O)N([C@H](C)CO)C[C@@H]2C)cc1,i,i,i,i
C[C@@H]1CN([C@@H](C)CO)C(=O)CCCn2cc(nn2)CO[C@@H]1CN(C)Cc1ccc(Cl)c(Cl)c1,i,i,i,i
C[C@@H]1CN([C@@H](C)CO)C(=O)c2cc(N(C)C)ccc2O[C@H]1CN(C)C(=O)Nc1ccccc1,i,i,i,i

Remaining list, next part.
SMILES,Myc binder,STAT3 binder,p53 mut binder,ID4 SMM
CCOC(=O)CNC(=O)c1cc(-c2ccccn2)nc2c(C)c(Cl)ccc12,i,i,i,i
C[C@@H]1CCCCO[C@H](CN(C)S(=O)(=O)c2cccs2)[C@H](C)CN([C@@H](C)CO)C(=O)c2cc(NC(=O)Nc3cccc4ccccc34)ccc2O1,i,i,i,.
C[C@]1(O)CC[C@@H]2C(C(=O)O)=CO[C@@H](O[C@@H]3O[C@H](COC(=O)c4ccc(O)cc4)[C@@H](O)[C@H](O)[C@H]3O)[C@@H]21,i,i,i,i
C[C@@H]1CN([C@H](C)CO)C(=O)c2cc(NC(=O)C3CC3)ccc2O[C@H]1CN(C)Cc1ccc2c(c1)OCO2,i,i,i,i
CCO[C@H]1OC(C(N)=O)=C[C@@H](c2csc3ccccc23)[C@@H]1CCCO,i,i,i,i
CC(=O)OCCN1C(=O)c2c(C)nc3ccc(S(=O)(=O)N4CCOCC4)cc3c2C1=O,i,i,i,i
Cc1ccc(NC(=O)CSc2n[nH]c(N)n2)cc1Cl,i,i,i,i
Cc1ncc2ccccc2c1C#N,i,i,i,i

Continued:
SMILES,Myc binder,STAT3 binder,p53 mut binder,ID4 SMM
C[C@H]1CN([C@@H](C)CO)C(=O)Cc2cc(N(C)C)ccc2O[C@@H]1CN(C)Cc1ccc(C(F)(F)F)cc1,i,i,i,i
C[C@@H]1CN([C@H](C)CO)C(=O)c2cccc(NC(=O)C3CCOCC3)c2O[C@@H]1CN(C)C(=O)Nc1cccc2ccccc12,i,i,i,i
Cc1cc(N)n(-c2ccc(Oc3ccccc3)cc2S(=O)(=O)O)n1,i,i,i,i
CCn1c(SCC(=O)c2ccccc2)nnc1-c1cc2cc(Br)ccc2o1,i,i,i,i
COc1ccc(NC(=O)N(C)C[C@@H]2Oc3ccc(NC(=O)NC(C)C)cc3C(=O)N([C@@H](C)CO)C[C@@H]2C)cc1,i,i,i,.
C[C@@H]1CN([C@H](C)CO)C(=O)Cc2cc(NS(C)(=O)=O)ccc2O[C@@H]1CN(C)S(=O)(=O)c1cn(C)cn1,i,i,i,i
COc1ccc(NC(=O)Nc2cccc3c2O[C@H](CN(C)Cc2ccncc2)[C@@H](C)CN([C@H](C)CO)C3=O)cc1,i,i,i,i
CN(CC(=O)Nc1ccc(Br)cc1F)S(=O)(=O)c1ccc(F)cc1,i,i,i,i
